Screening results deposited in PubChem by several laboratories.
GALR2 agonist: GALR2 (human) receptor agonism. GALR2-expressing cells, agonist activation read-out. 140,000 tested, 0.48% active. O43603. activation, %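 (tested at 5 µM)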. AID 803;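 active means above mean plus 3 SD of all compounds, about 5% in these data, not always enough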;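 further: 0% = vehicle buffer wells and 100% = reference agonist at full effect; tested in CHO reporter cells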
PKD1 inh: inhibitors of human PKD1 kinase; 200,000 tested, 0.056% active; inhibition, %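 (about 10 µM by stock and volumes)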; PKD1 kinase fluorescence polarization assay; Q15139;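 active means inhibition of 50% or more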;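 further: controls were vehicle for no effect and a reference inhibitor for full effect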
Target sequence (Q15139 whole entry, looked up): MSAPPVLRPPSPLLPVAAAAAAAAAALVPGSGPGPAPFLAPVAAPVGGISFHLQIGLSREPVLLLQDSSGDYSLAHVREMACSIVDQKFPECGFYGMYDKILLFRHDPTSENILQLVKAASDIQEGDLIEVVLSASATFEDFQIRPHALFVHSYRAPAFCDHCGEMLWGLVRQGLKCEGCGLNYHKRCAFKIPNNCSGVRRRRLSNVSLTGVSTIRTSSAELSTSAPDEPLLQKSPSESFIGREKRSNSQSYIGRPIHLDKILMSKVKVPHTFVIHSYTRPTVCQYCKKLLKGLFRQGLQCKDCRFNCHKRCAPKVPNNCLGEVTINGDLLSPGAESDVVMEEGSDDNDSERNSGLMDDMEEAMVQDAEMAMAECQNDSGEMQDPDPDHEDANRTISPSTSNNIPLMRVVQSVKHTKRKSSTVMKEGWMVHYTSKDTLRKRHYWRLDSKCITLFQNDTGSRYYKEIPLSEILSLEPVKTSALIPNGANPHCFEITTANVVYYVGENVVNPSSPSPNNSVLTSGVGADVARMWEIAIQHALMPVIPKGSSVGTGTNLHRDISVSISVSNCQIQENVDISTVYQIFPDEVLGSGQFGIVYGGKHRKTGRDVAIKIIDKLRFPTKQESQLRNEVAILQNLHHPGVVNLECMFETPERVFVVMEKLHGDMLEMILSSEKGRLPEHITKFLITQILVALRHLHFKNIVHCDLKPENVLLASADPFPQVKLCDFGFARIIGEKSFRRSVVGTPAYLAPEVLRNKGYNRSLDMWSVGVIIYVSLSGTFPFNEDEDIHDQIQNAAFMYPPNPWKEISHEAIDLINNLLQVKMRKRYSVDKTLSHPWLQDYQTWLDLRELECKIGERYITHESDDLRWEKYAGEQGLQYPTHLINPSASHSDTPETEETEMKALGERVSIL
RGS16-Gao: modulates binding between human RGS16 and Galphao. bead-based flow cytometry RGS16-Galphao binding, fluorescence; actives lie on both sides. binding response (% of control), % at 10 µM. 220,000 tested, 0.38% active;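 active means below 25% or above 175%, edge rows of some plates excepted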;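 further: Galphao activated by GDP with aluminum fluoride before binding; 100% = wells without compound and 0% = beads without RGS; some results beyond the cut were filed as inactive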
HSV replic up: increases HSV replication in cells | HSV replication augmentation in cells, fold increase | maximum fold increase | 220,000 tested, 0.005% active;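 active means peak rise of 1.5-fold or more in the series; tested in PC3 cells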;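 further: first round at 10 µM; read as green reporter fluorescence; hits show the peak of a series up to 25 µM; 1 = signal of infected wells without compound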
INS promoter inh: TRM-6 insulin promoter activity inhibition; TRM-6 cells (human fetal islet line), insulin promoter-eGFP reporter, imaging; reporter expression induced with tamoxifen; inhibition, % at 2 µM; 130,000 tested, 0.9% active;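 active means inhibition above the mean plus 3 SD, with well images judged a real hit on visual review, cut at about 60% in these data, passing the limit was not always enough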
INS promoter inh cell count: second read-out of INS promoter inh, no call of its own (marks repeat the call); normalized cell count, %; measured here: cell count, toxicity; reference of the scale not given here;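 cells exposed to compound for 48 h; stained nuclei by imaging scaled within each plate; lower means fewer cells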
HSV replic up primary fold: second read-out of HSV replic up, no call of its own (marks repeat the call); fold increase; compound at 10 µM; measured here: primary screen fold increase 10 uM; tested in PC3 cells;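 GFP signal in the first replicate; 1 = infected wells without compound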
* hit, by the source's call; i = inactive; . = not tested or not shown. Not a hit list; about 1.3% have a hit in one of these screens.

Order of results – GALR2 agonist	INS promoter inh	HSV replic up	RGS16-Gao	PKD1 inh	HSV replic up primary fold	INS promoter inh cell count
- Cc1ccc(OCCOCCOc2cccc3cccnc23)c(Br)c1
  1.0	-8	.	107	0	.	107
- COc1ccc(-c2nnc3ccc(SCC(=O)NCC4CCCO4)nn23)cc1 (configuration not stated)
  -1.5	.	i	108	-7	0.96	.
- COC(=O)C1C(=O)C=C(Nc2ccc(F)cc2F)CC1c1ccccc1 (configuration not stated)
  -1.4	16	i	109	-10	0.94	103
- O=C(Nc1nc2c(ccc3ccccc32)s1)c1ccco1
  -0.9	24	i	97	0	0.98	111
- O=C(Nc1ccn(Cc2ccccc2F)n1)c1ccc(COc2cc(Cl)ccc2Cl)o1
  -0.1	.	i	98	-7	1	.
- Cc1ccc(-c2cc(C(F)(F)F)c(C#N)c(SCC(=O)O)n2)cc1
  .	.	i	106	-4	1.2	.
- CC1(C)C2CCC(C2)C1(C)NC(=O)CNC1CCCCC1 (configuration not stated)
  .	18	i	103	1	0.83	122
- CCOC(=O)CCC(NC(=O)c1ccccc1C(=O)NC(CCC(=O)OCC)C(=O)OCC)C(=O)OCC (configuration not stated)
  .	-79	i	101	-2	0.99	118
- Cc1nn(-c2ccccc2)c(C)c1C(=O)NCc1cccs1
  -2.3	-10	i	111	-6	0.97	59
- Cc1ccc(S(=O)(=O)N2CCCC2C(=O)NC2=NCCS2)cc1 (configuration not stated)
  -2.5	16	i	103	0	0.94	116
- CN(Cc1nc(C(c2ccccc2)c2ccccc2)no1)CC1COCCO1 (configuration not stated)
  .	21	i	87	-3	1	68
- COc1ccc(OC)c(S(=O)(=O)N2CCCCCC2)c1
  -1.8	.	i	101	1	0.85	.
- COc1cccc(/C=c2\sc3nc(-c4cccs4)nn3c2=O)c1OC
  -2.7	.	.	101	1	.	.
- COc1ccc(C2OC(=O)CC2C(=O)NCc2ccc(Cl)cc2)cc1OC (configuration not stated)
  .	-75	i	52	2	0.99	57
- COc1ccc(C)cc1NS(=O)(=O)c1cc(C)ccc1C
  0.6	.	i	101	3	1.7	.
- N/C(=N\N=C\c1ccco1)SC1CC(=O)N(c2ccc(C(=O)O)cc2)C1=O (configuration not stated)
  .	.	i	100	-12	0.94	.
- COc1ccc(C2CCCN2C(=O)Nc2ccc(C)c(C)c2)cc1OC (configuration not stated)
  -0.9	.	i	109	-6	0.9	.
- CC(C)CN(CC(C)C)S(=O)(=O)N1CCC(C(=O)NCc2ccco2)CC1
  .	-93	.	108	-4	.	57
- Cc1cccnc1NC(=S)NC(=O)c1cccs1
  -1.9	0	i	104	0	0.99	99
- Cc1noc(C)c1C(=O)OCC(=O)Nc1ccccc1Oc1ccccc1
  -2.5	-4	i	108	-1	0.87	98

Just HSV replic up primary fold, RGS16-Gao and HSV replic up, for 5 of the compounds above:
| mol | HSV replic up primary fold | RGS16-Gao | HSV replic up |
| --- | --- | --- | --- |
| N/C(=N\N=C\c1ccco1)SC1CC(=O)N(c2ccc(C(=O)O)cc2)C1=O (configuration not stated) | 0.94 | 100 | i |
| COc1ccc(C2CCCN2C(=O)Nc2ccc(C)c(C)c2)cc1OC (configuration not stated) | 0.9 | 109 | i |
| CC(C)CN(CC(C)C)S(=O)(=O)N1CCC(C(=O)NCc2ccco2)CC1 | . | 108 | . |
| Cc1cccnc1NC(=S)NC(=O)c1cccs1 | 0.99 | 104 | i |
| Cc1noc(C)c1C(=O)OCC(=O)Nc1ccccc1Oc1ccccc1 | 0.87 | 108 | i |

Other results follow:
Order of results – GALR2 agonist	INS promoter inh	HSV replic up	RGS16-Gao	PKD1 inh	HSV replic up primary fold	INS promoter inh cell count
- [O-][n+]1onc2c1CCc1nnc(-c3ccccc3)cc1-2
  -1.9	16	i	87	-6	0.7	106
- COc1cccc(CN2CCN(Cc3ccc(O)c(OC)c3)CC2CCO)c1 (configuration not stated)
  .	-56	i	106	2	0.86	165
- Cc1cccc(C)c1NC(=O)NCCCN1CCN(c2ccccc2)CC1
  .	3	i	97	-1	1.1	147
- COC(=O)c1ccc(CSc2nnc(-c3ccncc3)n2Cc2ccccc2)o1
  -3.8	.	i	99	14	0.98	.
- COc1ccc(NS(=O)(=O)c2ccc(OC)c(NC(=O)CCC3CCCCC3)c2)cc1
  -0.3	-27	i	104	0	0.95	101
- COc1cccc(CN2C(=O)c3ccccc3C2C(=O)NCC2CCCO2)c1 (configuration not stated)
  -2.5	-32	i	106	-3	0.88	82
- COc1ccc([N+](=O)[O-])cc1NC(=O)c1ccco1
  .	.	i	101	-10	0.94	.
- CCC(C)NCCOCCOc1ccc(Cl)c2ccccc12 (configuration not stated)
  .	.	i	105	-6	0.65	.
- c1coc(-c2ccnc(-n3cccc3)n2)c1
  .	.	i	92	-1	1.2	.
- CCCCOP(=O)(OCCCC)C(O)c1ccc(Br)cc1 (configuration not stated)
  -1.7	.	i	100	3	1.1	.
- CC(C)C(=O)Nc1ccc(O)c(-c2csc(N)n2)c1
  .	-12	i	102	-3	0.91	92
- COc1ccc(NC(=O)c2noc3c2CCC3)cc1
  -1.4	-33	i	95	-2	0.97	86
- CC1Oc2ccccc2N(CC(=O)NCCc2ccccc2)C1=O (configuration not stated)
  -0.7	-3	i	97	-1	1.1	69
- Cc1cc(C(=O)COc2ncnc3sccc23)c(C)n1C1CC1
  -3.2	.	i	105	-10	0.92	.
- CC(=O)Nc1nn(C)c2nc(C)cc(C)c12
  .	.	i	102	-5	1.1	.
- O=C(Cn1cnc2c(nnn2Cc2ccc(Cl)cc2)c1=O)NCc1ccco1
  0.0	-22	i	88	2	1	142
- CC(=O)CC(=O)Nc1ccc2ccccc2c1
  .	.	i	96	.	1	.
- Nc1c(C(=O)NCCN2CCOCC2)c2nc3ccccc3nc2n1-c1ccc2c(c1)OCO2
  0.9	.	i	94	-11	0.8	.
- CCCCNC(=O)CCCCC(=O)N/N=C/c1cccc(Cl)c1
  -1.2	-46	i	100	1	0.85	122
- Cc1ccc(NC(=O)c2c([N+](=O)[O-])c(C(C)(C)C)nn2C)cc1
  -1.0	29	i	120	-5	0.95	69
- COC(=O)c1cc(S(=O)(=O)N2CCOCC2)c(N2CCOCC2)cc1N1CCOCC1
  -1.3	.	i	70	-9	0.99	.
- CC(C)(C)NC(=O)COC(=O)c1cc(Cl)ccc1[N+](=O)[O-]
  .	.	i	100	-6	1	.
- CN(C)c1nc(-c2ccc([N+](=O)[O-])cc2)cs1
  -2.8	22	i	101	-5	0.96	81
- Cc1nc2c(sc3nc(N4CCOCC4)c4c(c32)CC(C)(C)OC4)c(-c2ccc(Cl)cc2)c1C(=O)O
  .	.	i	108	.	1.2	.
- CC(C)C(c1nnnn1Cc1ccccc1)N(Cc1ccco1)Cc1cccs1 (configuration not stated)
  0.0	.	i	100	4	0.98	.
- COc1ccc(NC(=S)N2CCc3ccccc3C2)cc1OC
  .	.	i	98	0	0.92	.
- Clc1ccc(-c2ncc3ccccn23)c(Cl)c1
  .	11	i	101	-9	0.92	123
- CCOC(=O)CC(NC(=O)c1ccco1)c1ccc(C)cc1 (configuration not stated)
  -2.5	-35	i	100	1	0.89	112
- C/C(Nc1ccccc1)=C(/C#N)C(N)=O
  0.3	0	i	102	11	1	94
- CCC(C)NC(=O)CSc1nc2scc(-c3ccccc3)c2c(=O)[nH]1 (configuration not stated)
  -1.7	23	i	117	0	0.98	100
- CC/S(=N\S(=O)(=O)c1ccc(C)cc1)c1ccccc1 (configuration not stated)
  .	.	i	97	.	1.1	.
- Cc1cc(-c2ccccc2)nc(N(C)NC(=O)C(C)(C)C)c1S(C)(=O)=O
  .	0	i	100	-4	0.92	103
- O=C(NCCC1=CCCCC1)C(=O)NCc1ccccc1
  0.4	.	i	103	-11	1	.
- CCCOC(=O)C1[C@H]2C(=O)N(CC3CCCO3)C[C@]23C=C[C@H]1O3 (some centres not stated)
  0.1	-35	i	99	1	0.89	193
- COc1ccc(/C=C/C(=O)O)cc1Cl
  .	.	i	99	.	0.78	.
- O=C1NCCNC1(c1c[nH]c2ccccc12)C(F)(F)F (configuration not stated)
  -2.7	.	i	101	-20	1	.
- CC(C)c1nc(CNC(=O)CC2C(=O)NCCN2Cc2ccoc2)cs1 (configuration not stated)
  .	.	i	105	-6	1.1	.
- CC(=O)Nc1cccc(Oc2ncnc3scc(-c4ccccc4)c23)c1
  0.1	.	i	103	-12	0.88	.
- O=C(Nc1ncccc1O)c1cccc(S(=O)(=O)N2CCc3ccccc32)c1
  -2.5	39	i	105	4	0.95	90
- CCn1c(O)c(N=NC(=O)c2cccc(S(=O)(=O)N3CCCCC3)c2)c2ccccc21
  -1.1	-4	i	58	0	0.9	55
- NC(=O)N=Nc1c(O)[nH]c2c(Br)cc(Br)cc12
  .	.	i	112	-5	0.97	.
- O=C(NNS(=O)(=O)c1ccc(F)cc1)C1CCN(Cc2cccc(F)c2)CC1
  .	-36	i	99	-7	1	115
- Cc1cc2cc3c(cc2nc1SCc1ccc(C(=O)O)cc1)OCCO3
  0.4	.	i	104	-7	1.2	.
- C/C(=N\OCC(=O)Nn1c(C)nc2ccccc2c1=O)c1ccccc1
  -0.5	-115	i	91	-5	0.91	178
- CCN(CC)CCCN1C(=O)C(=O)/C(=C(/O)c2ccc(C)cc2)C1c1ccccn1 (configuration not stated)
  1.1	0	i	106	4	0.98	115
- CCc1ccccc1NC(=O)Cn1cccc1C1=NC(c2ccccc2)CO1 (configuration not stated)
  -1.1	-36	i	110	-8	1.1	69
- Cc1ccc(NC(=O)c2ccc3ncsc3c2)cc1S(=O)(=O)N(C)C
  .	.	i	101	.	0.91	.
- Cc1ccc(C(=O)Nc2ccc(F)cc2F)o1
  -1.4	37	i	104	-3	0.92	37
- COc1cc(C(=O)O/N=C(\N)c2ccc([N+](=O)[O-])cc2)cc(OC)c1OC
  0.4	-21	i	92	-3	1	54
- CC(C)c1cc(C(F)(F)F)n2nc(C(=O)O)cc2n1
  -2.2	43	i	99	-1	0.74	34

Additional compounds
Order of results – GALR2 agonist	INS promoter inh	HSV replic up	RGS16-Gao	PKD1 inh	HSV replic up primary fold	INS promoter inh cell count
- CCN(CC)c1ccc(NC(=O)Cn2ncc3c(C)n(Cc4ccccc4F)c(C)c3c2=O)c(C)c1
  -0.2	23	i	105	-2	0.93	154
- CC(Sc1sc(=S)sc1SC(C)C(=O)O)C(=O)O (configuration not stated)
  -1.1	18	i	103	-13	1	130
- CN(CC(=O)NC1CCCCCC1)S(=O)(=O)c1ccc2c(c1)n(C)c(=O)c(=O)n2C
  -3.2	.	i	102	6	1	.
- CN(C)C(CNC(=O)c1ccc2c(c1)S(=O)(=O)c1ccccc1C2=O)c1ccco1 (configuration not stated)
  .	6	i	101	2	0.97	91
- Nc1nc(NCC2CCCO2)nc(Nc2cccc(F)c2)c1[N+](=O)[O-] (configuration not stated)
  .	.	i	108	.	0.74	.
- CCC1(C(=O)OC)NC(c2ccccc2OC)C2C(=O)N(C)C(=O)C21 (configuration not stated)
  0.5	.	i	53	-2	0.85	.
- COc1ccc(C2C(C(=O)c3sc(C)nc3C)=C(O)C(=O)N2CCN(C)C)cc1 (configuration not stated)
  -1.3	-12	i	106	3	0.99	115
- Cc1ccc([N+](=O)[O-])cc1NC(=O)Nc1cccc(F)c1
  .	.	i	102	.	0.97	.
- CCOC(=O)c1ccc(NC(=O)C(=O)NCc2ccncc2)cc1
  -2.4	-13	i	92	-2	0.7	66
- COc1ccc(CNC(=O)CCSCc2ccc(C)cc2)cc1
  .	47	i	100	-1	0.9	101
- CC(=O)Nc1ccc(NC(=O)C(Sc2ccccc2)c2ccccc2)cc1 (configuration not stated)
  .	.	i	101	.	0.95	.
- CCN(CC)CCN1C(=O)C(O)=C(C(C)=O)C1c1ccc(OC)c(OC)c1 (configuration not stated)
  -3.1	.	i	174	-12	1.1	.
- CCOc1ccc(NC(=O)CSc2nnc(-c3ccncc3)n2CC2CCCO2)cc1 (configuration not stated)
  0.2	.	i	101	4	0.86	.
- COc1cc2c(c(O)c1OC)-c1c(cc(OC)c(OC)c1OC)C[C@@H](C)[C@@H](C)C2
  .	.	i	99	.	0.79	.
- Cc1cc(C(=O)OCC(=O)Nc2cccnc2Cl)c2ccccc2n1
  .	.	i	100	-5	1.1	.
- Cc1ccc(CCNC(=O)C2CC(c3cccc(F)c3)=NO2)cc1 (configuration not stated)
  .	.	i	106	.	0.82	.
- Cc1ccc(S(=O)(=O)NC(=O)Nc2cc(C)on2)cc1
  .	-40	i	107	-10	0.94	77
- O=C(Nc1ccc(S(=O)(=O)NCCc2ccccc2)cc1)c1ccc(Br)o1
  -4.0	-354	i	100	3	0.86	47
